Methyltransferases: Primary Screen for Target Class Profiling of Small Molecule Inhibitors of Methyltransferases; purified enzyme, MTase-Glo SAH luminescence; active compounds read low; calls only at 40 µM; hit rate 3.9% among 25,000; AID 1745853, 2022; active = -50% or lower on at least one of six enzymes; inconclusive = the cases between; inactive = as a rule above -30% on all six;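 also: enzymes were COMT GAMT GNMT HNMT NNMT and PNMT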
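Each enzyme was reacted with SAM and its substrate, with compounds tested once at 40 uM; SAH formed was read by MTase-Glo luminescence.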
Calls only; i = inactive; ? = inconclusive; + = active, no number. % is scaled to controls: 0 for no effect and ±100 for the full control effect.

Start of the data: the first three compounds, to show the layout:
canonical_smiles	Methyltransferases
CC(Oc1ccc2ccccc2c1)C(=O)N(C)Cc1ccc2nsnc2c1 (stereo not given)	i
CC(C)n1c(=O)c2ccc(C(=O)NC3CCCCC3)cc2n2c(=O)n(CC(=O)c3ccccc3)nc12	i
O=C(NCc1ccc2c(c1)OCO2)c1n[nH]nc1Nc1ccc(Cl)cc1	i

The whole of this part (from the top)
canonical_smiles	Methyltransferases
CC(Oc1ccc2ccccc2c1)C(=O)N(C)Cc1ccc2nsnc2c1 (stereo not given)	i
CC(C)n1c(=O)c2ccc(C(=O)NC3CCCCC3)cc2n2c(=O)n(CC(=O)c3ccccc3)nc12	i
O=C(NCc1ccc2c(c1)OCO2)c1n[nH]nc1Nc1ccc(Cl)cc1	i
COc1ccc(CCNC(=O)c2cc3n(n2)CC(C)(C(=O)NCc2ccccc2)N(C)C3=O)cc1OC (stereo not given)	i
Cn1c(SCC(=O)N2CCC[C@H]2C(=O)Nc2ccccc2-c2ccccc2)nc2ccccc21	i
CCn1nc(CNC(=O)c2c(F)cccc2Cl)c2ccccc21	i
OC1CC(c2cc(N3CCC(c4nc5ccccc5[nH]4)CC3)ncn2)C1 (stereo not given)	i
COC(=O)c1ncn2c1C(=O)N(c1ccc(C(C)C)cc1)C(C)(C(=O)NC1CCCCCC1)C2 (stereo not given)	i
CN(C)[C@@H]1CN(Cc2ccc(C#N)cc2)C[C@H]1CO	i
Cc1ccc(C)c(NC(=O)Cn2c(=O)oc3cc(S(=O)(=O)NCc4ccccc4)ccc32)c1	i
NC(=O)C(CCC(F)(F)F)N(Cc1ccc(-c2ncon2)cc1F)S(=O)(=O)c1ccc(Cl)cc1 (stereo not given)	?
CC(C)C1NC(=O)CNC(=O)C2CCCN2C(=O)C(Cc2c[nH]c3ccccc23)NC(=O)CNC(=O)C(C(O)c2ccc(O)cc2)NC(=O)CNC1=O (stereo not given)	i
O=C(OCc1ccccc1O[C@@H]1O[C@H](CO)[C@@H](O)[C@H](O)[C@H]1O)C1(O)C=CCCC1O (stereo not given in full)	i
CNC(=O)[C@@H](C1CCCCC1)N1CCC[C@H]1C(=O)NCCN1CCOCC1	i
CCN1CCN(CCNC(=O)c2cc3n(n2)CC(C)(C(=O)NC2CCCCC2)N(C)C3=O)CC1 (stereo not given)	i
COc1cc([C@H]2OC[C@@H]3[C@@H](c4ccc(O[C@@H]5O[C@H](CO)[C@@H](O)[C@H](O)[C@H]5O)c(OC)c4)OC[C@]23O)ccc1O	i
COc1cccc(N2C(=O)c3cc(-c4ccccc4)nn3CC2(C)C(=O)NCc2ccccc2OC)c1 (stereo not given)	i
CSc1ccc(CN2C(=O)c3cc4ccccc4n3CC2(C)C(=O)NCc2ccccc2)cc1 (stereo not given)	i
Cc1ccccc1CSc1nnc2n(C)c(=O)c3ccc(C(=O)NC4CCCC4)cc3n12	i
CCCN1C(=O)c2cc(C(=O)N3CCN(c4ccccc4)CC3)nn2CC1(C)C(=O)NC1CCCC1 (stereo not given)	i

Later entries:
canonical_smiles	Methyltransferases
COc1cc(C2Oc3c(OC)cc(/C=C/C(=O)OC4CC(O)(C(=O)O)CC(O)C4O)cc3C2CO)ccc1O (stereo not given)	+
Cc1ccc2c(c1)c1c3n2CCN(CC(O)CN2CCCCC2)C3CCC1 (stereo not given)	i
COc1cccc(N2C(=O)NC(=NC3CCCCC3)C23CCCN([S+](=O)([O-])c2cccs2)C3)c1 (stereo not given)	i
COc1ccc(Nc2nc3c(S(=O)(=O)c4ccc(C)cc4)nnn3c3ccccc23)cc1	i
CCN(Cc1cnn(CC)c1)C(=O)C1COc2ccccc2C1 (stereo not given)	i
Cc1ccc(-c2cccc(CN3C4CCC3CN(C(C)C)C4)c2)c(C)c1	i
CCCOCCNC(=O)c1c(C)noc1-c1ccc(OC(F)(F)F)cc1	i
C=C[C@@]1(C)CC(=O)[C@]2(O)[C@@]3(C)[C@@H](O)CCC(C)(C)[C@@H]3[C@H](O)[C@H](OC(C)=O)[C@@]2(C)O1	?
CC1(C)S[C@@H]2[C@H](NC(=O)[C@H](N)c3ccc(O)cc3)C(=O)N2[C@H]1C(=O)O	?
O=C1CCN(C(=O)c2nccc3ccccc23)CCOCCN1	i
CC1(C(=O)NC2CCCCC2)Cn2c(cc3sccc32)C(=O)N1Cc1ccccc1F (stereo not given)	i
Cc1ccc(NC(=O)Cn2nc3n(C)c(=O)c4ccc(C(=O)NC5CCCC5)cc4n3c2=O)c(Cl)c1	i
Cc1ccc(Cn2c(=O)c3ccc(C(=O)NC(C)C)cc3n3c(=O)n(CC(=O)NC(C)C)nc23)cc1	i
Cc1ccc(N2C(=O)c3cc4sccc4n3CC2(C)C(=O)NC2CCCC(C)C2C)cc1 (stereo not given)	i
CCc1ccc(S(=O)(=O)c2nnn3c2nc(N2CCN(C)CC2)c2cc(Cl)ccc23)cc1	i
COc1ccccc1CNC(=O)CCc1nnc2n(Cc3ccccc3Cl)c(=O)c3ccccc3n12	i
CC1CN(S(=O)(=O)c2ccc3[nH]c4c(c3c2)CCCC4)c2ccccc2O1 (stereo not given)	i
CC1(C(=O)NC2CCCC2)Cn2c(nc3ccccc32)C(=O)N1CCc1ccccc1 (stereo not given)	i
c1ccc(CCc2nc3nccc(-c4cccnc4)n3n2)cc1	i
CO[C@H]1O[C@@H]2O[C@]3(C)CC[C@@H]4[C@@H](C)CC[C@H]([C@H]1C)[C@]24OO3	i

(listing goes on)
canonical_smiles	Methyltransferases
CC(C)CNC(=O)c1ccc2c(=O)n(C(C)C)c3nn(Cc4ccc(F)cc4Cl)c(=O)n3c2c1	i
COc1cccc(C(=O)N2CCC(C(NC(=O)CC(C)C)C(=O)NCC(C)C)CC2)c1 (stereo not given)	i
NC(=O)c1noc([C@H](CCCC2CCCCC2)CC(=O)NO)n1	i
C=CCn1c(=O)c2ccc(C(=O)NC(C)CC)cc2n2c(=O)n(CC(=O)N(C)c3ccccc3)nc12 (stereo not given)	i
CC1=CC(=O)OC(C)(CC(C)(O)C(=O)O)C1 (stereo not given)	i
O=C1CCC2(CCN(C(=O)c3ccoc3)CC2)CN1CC1CCCO1 (stereo not given)	i
COc1cccc(C(=O)N2CCC(Oc3ccccc3-c3nc(C4CCOCC4)no3)C2)c1 (stereo not given)	i
COc1cccc(CCC(=O)N2CCC(OCC3CC3)C2)c1 (stereo not given)	i
COc1ccccc1-c1c[nH]c2ncc(-c3cncc(C(=O)N(C)C)c3)cc12	?
COc1cccc(N2C(=O)NC(=NC3CCCC3)C23CCCN(Cc2cccn2C)C3)c1 (stereo not given)	i
O=C(Cn1c(=O)oc2cc(S(=O)(=O)NCc3ccccc3)ccc21)Nc1ccc(F)cc1	i
COCCN1C(=O)c2ccccc2C(C(=O)Nc2ccc3[nH]ccc3c2)C12CCCC2 (stereo not given)	i
COc1cccc(C(=O)N2CCC(N3C(=O)c4c(c(C)nn4-c4ccccc4)C3C3CC3)C2)c1 (stereo not given)	?
Cc1ccc(NC(=O)Cn2nc3n(C(C)C)c(=O)c4ccc(C(=O)NC5CCCC5)cc4n3c2=O)cc1	i
Cc1ccc(NC(=O)CN(C)S(=O)(=O)c2ccc3[nH]c4c(c3c2)CCCC4)cc1	i
CCCCN1C(=O)CC[C@H]2CN(C(=O)CCn3cccc3)CC[C@H]21	i
Cc1ccc(CNC(=O)Cn2nc3n(Cc4ccccc4)c(=O)c4ccccc4n3c2=O)cc1	i
COc1ccc(CNC(=O)c2sc(=S)n3c2[nH]c(=O)c2cc4c(cc23)OCO4)cc1	i
Cc1ccc(NC(=O)CCc2nnc3n(CCc4ccccc4)c(=O)c4ccccc4n23)cc1C	i
CCC(C)NC(=O)Cn1nc2n(Cc3ccccc3)c(=O)c3ccc(C(=O)NCC(C)C)cc3n2c1=O (stereo not given)	i

Another view of part of the listing above:
SMILES: COc1cccc(CCC(=O)N2CCC(OCC3CC3)C2)c1 (stereo not given)
  Methyltransferases = i

SMILES: COc1ccccc1-c1c[nH]c2ncc(-c3cncc(C(=O)N(C)C)c3)cc12
  Methyltransferases = ?

Remaining list, next part.
canonical_smiles	Methyltransferases
CC(=O)Nc1c2n(c3ccc(F)cc13)CC(C)(C(=O)NC1CCCC1)N(CCc1ccccc1)C2=O (stereo not given)	i
COc1ccc(OC)c2c1cc1n2CC(C)(C(=O)NC2CCCCC2)N(Cc2ccc(F)cc2)C1=O (stereo not given)	i
CC1(C(=O)NCc2ccccc2)Cn2c(nc3ccccc32)C(=O)N1Cc1ccc(Cl)cc1 (stereo not given)	i
O=C(c1ccncc1)N1CC(N(Cc2ccncc2)CC2CC2)C1	i
COc1cccc(C2c3cccn3-c3sc4c(c3CN2C(=O)Nc2cc(C)ccc2OC)CCCC4)c1 (stereo not given)	i
CCOC(=O)c1cc2n(n1)CC(C)(C(=O)NCc1ccccc1OC)N(c1ccc(C)c(Cl)c1)C2=O (stereo not given)	i
COc1ccc2cc3n(c2c1)CC(C)(C(=O)NCC1CCCO1)N(Cc1ccccc1Cl)C3=O (stereo not given)	i
C=CCn1c(=O)c2ccc(C(=O)NC(C)C)cc2n2c(=O)n(CC(=O)Nc3ccccc3C)nc12	i
COc1ccc(OC2CN(Cc3cccnc3)C2)cc1	i
O=C(c1cnc(N2CCOCC2)nc1)N1CCn2nc(C(O)C3CC3)cc2C1 (stereo not given)	i
Cc1nc2ncccn2c1C(=O)N[C@H]1CCOC[C@H]1C1CCOCC1	i
Cc1ccc(-c2nnn3c2nc(NCC2CCCO2)c2ccccc23)cc1 (stereo not given)	i
CC1(C)CC[C@]2(C(=O)OC3OC(CO)C(O)C(O)C3O)CC[C@]3(C)C(=CCC4[C@@]5(C)CC[C@H](OC6OC(C(=O)O)C(O)C(OC7OC(CO)C(O)C(O)C7O)C6O)C(C)(C)C5CC[C@]43C)C2C1 (stereo not given in full)	i
CC/C=C\CC1C(=O)C=CC1(CCCCC1CCC(=O)O1)OC(C)=O (stereo not given)	i
NC(=O)C1CCN(c2nc3c(S(=O)(=O)c4ccccc4)nnn3c3ccccc23)CC1	i
Cc1ccc(NS(=O)(=O)c2ccc3c(c2)n(C)c(=O)n3C)cc1C	i
COc1ccccc1NC(=O)Cn1nc2n(CCc3ccccc3)c(=O)c3ccccc3n2c1=O	i
CCS(=O)(=O)N1CCC([C@@H](C)n2c(C)c(C(=O)NCc3c(OC)cc(C)[nH]c3=O)c3ccccc32)CC1	?
CCCn1c(=O)c2ccc(C(=O)NC(C)C)cc2n2c(=O)n(CC(=O)c3ccc(C)cc3C)nc12	i
CC(C)CCNC(=O)C1(C)Cn2c(cc3ccccc32)C(=O)N1CCc1cccs1 (stereo not given)	i

(continued)
canonical_smiles	Methyltransferases
CC(CCC1C(C(=O)O)=CC(=O)CC1(C)C)O[C@@H]1O[C@H](CO)[C@@H](O)[C@H](O)[C@H]1O (stereo not given in full)	+
O=C(C[C@@H]1CCNC[C@@H]1Cc1cc(CN2CCCCC2)on1)NCc1cccs1	i
CCCC(CCC)C(=O)Nc1ccn([C@@H]2O[C@H](CO)[C@@H](O)C2(F)F)c(=O)n1	i
NS(=O)(=O)OC[C@@H]1C[C@@H](n2ccc3c(N[C@H]4CCc5ccccc54)ncnc32)C[C@@H]1O	+
Cc1cc(F)ccc1NC(=O)c1cc2n(n1)CC(C)(C(=O)NC1CCCCCC1)N(C)C2=O (stereo not given)	i
CCc1cc2c(cc3n2CC(C)(C(=O)NC2CCCCCC2)N(c2cccc(C)c2C)C3=O)s1 (stereo not given)	i
O=c1cc(-c2ccncc2)nc(-c2ccc(CN3CC[C@@H](O)C3)cc2)[nH]1	i
CC(C)Cc1cc(C(=O)N2C[C@H](C3CC3)[C@@H](N)C2)n(C)n1	i
O=C(NC1CCCCC1)O[C@@H]1CO[C@H]2[C@@H]1OC[C@@H]2n1nnnc1SCc1ccco1	i
COc1nc(-c2ccc3c(c2)OCO3)n(-c2ccc(NC(=O)CSc3ccccc3)cc2)n1	?
CN(C(=O)Cn1c(=O)oc2cc(S(=O)(=O)N3CCCC3)ccc21)c1ccc(Br)cc1	i
O=C(Cn1c(=O)oc2cc(S(=O)(=O)NCc3ccccc3)ccc21)N1CCOCC1	i
NCCCC[C@H](NC(=O)[C@@H]1Cc2ccccc2CN1C(=O)CCC(=O)c1ccccc1)C(=O)NCC(c1ccccc1)c1ccccc1	i
CCOc1ccc(CN2C(=O)c3ccc(-c4ccco4)n3CC2(C)C(=O)NC2CCCCC2C)cc1 (stereo not given)	i
Cc1ccc(C(=O)N(CCCN)C(c2nc3cc(Cl)ccc3c(=O)n2Cc2ccccc2)C(C)C)cc1 (stereo not given)	i
O=c1c2ccccc2n2c(=O)n(Cc3ccccc3F)nc2n1Cc1ccc(F)cc1	i
CC1COC2(OC3CC4C5CC(O[C@@H]6O[C@H](C)[C@@H](O[C@@H]7O[C@@H](C)[C@H](O)[C@@H](O)[C@H]7O)[C@H](O)[C@H]6O)C6CC(O)CCC6(C)C5CCC4(C)C3C2C)C(O)C1 (stereo not given in full)	i
CO[C@H]1/C=C/[C@@](C)(O)/C=C/C(=O)O[C@H](C)[C@@H](C)CC/C=C/1C	i
Cc1nnc2n1C(C)CN(C(=O)CCn1cnc3ccccc3c1=O)C2 (stereo not given)	i

Bioassay records: PubChem, National Center for Advancing Translational Sciences (NCATS)

This is a subset (hit frequency here may not be typical).
